Imprint erasure – inducers of genomic imprint erasure in mouse ES cells | 110,000 tested, 0.02% active | Potency, µM (top dose mostly 60.7 µM), for inactives: top-dose activity change, positive = activation, hits mostly activators | mouse ES Peg3-LacZ reporter, beta-gal luminescence, 40 h; active means well fitted activation curve with a large enough effect; inconclusive means small, poorly fitted or top-dose-only effect; inactive means no such curve, though single readings can be large or run the other way;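 further: 0% = negative control wells on the plate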
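Gelatin-coated wells received 300 freshly trypsinized female ES cells with a Peg3LacZ-Neo reporter on the maternal allele, then incubated 40 hours at 37C. BetaGlo was added for 5 minutes at room temperature before a single luminescence read.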
Numbers without * were called inactive; ? = inconclusive; & = joins results of further samples; [ ] = another dose, or the depositor's remark. Potency means the concentration at half of the fitted maximal effect. These rows are one share of the data; most or all hits stand in other tables.

mol | Imprint erasure
CC(C)(C)NCC(O)c1ccc(O)c(CO)c1 (stereo unspecified) | ?
Cc1nc2nc(NCc3cccc(Br)c3)[nH]n2c(=O)c1Cc1ccccc1 | -3%[10.9 µM]
COc1cc(Cc2cnc(N)nc2N)cc(OC)c1OC | 1%
Nc1ccc(N)c([N+](=O)[O-])c1 | 17%
CCNC(=O)C1CC(=O)N(CC)C(=Nc2cc(Cl)c(O)c(Cl)c2)S1 (stereo unspecified) | 1%
CS(=O)(=O)c1ccc([C@H](O)[C@H](CF)NC(=O)C(Cl)Cl)cc1 | -18%[16.8 µM]
NCCN1C(=O)c2ccccc2[C@@]1(O)c1ccc(Cl)cc1 | -13%[10.9 µM]
CN1CCN(C2=Nc3cc(Cl)ccc3Nc3ccccc32)CC1 | -7%

Continued; it opens with the 2 that closed the last part.
mol | Imprint erasure
NCCN1C(=O)c2ccccc2[C@@]1(O)c1ccc(Cl)cc1 | -13%[10.9 µM]
CN1CCN(C2=Nc3cc(Cl)ccc3Nc3ccccc32)CC1 | -7%
CC(C(=O)O)c1cccc(C(=O)c2ccccc2)c1 (stereo unspecified) | -2%&-17%&-16%
CC(C)NCC(O)COc1cccc2[nH]ccc12 (stereo unspecified) | -11%&-2%
N#Cc1ccccc1CSc1nc(O)cc(=O)[nH]1 | 5%
Cc1sc2ncnc(SCC(=O)N3CCN(C(=O)c4ccco4)CC3)c2c1C | -23%
O=C(CCCN1CCC(O)(c2ccc(Cl)cc2)CC1)c1ccc(F)cc1 | -14%
C/C=C/CC(C)C(O)C1C(=O)NC(CC)C(=O)N(C)CC(=O)N(C)C(CC(C)C)C(=O)NC(C(C)C)C(=O)N(C)C(CC(C)C)C(=O)NC(C)C(=O)NC(C)C(=O)N(C)C(CC(C)C)C(=O)N(C)C(CC(C)C)C(=O)N(C)C(C(C)C)C(=O)N1C (stereo unspecified) | -30%&-14%

In the list so far, 5 have four or more nitrogen atoms:
mol | Imprint erasure
Cc1nc2nc(NCc3cccc(Br)c3)[nH]n2c(=O)c1Cc1ccccc1 | -3%[10.9 µM]
COc1cc(Cc2cnc(N)nc2N)cc(OC)c1OC | 1%
CN1CCN(C2=Nc3cc(Cl)ccc3Nc3ccccc32)CC1 | -7%
Cc1sc2ncnc(SCC(=O)N3CCN(C(=O)c4ccco4)CC3)c2c1C | -23%
C/C=C/CC(C)C(O)C1C(=O)NC(CC)C(=O)N(C)CC(=O)N(C)C(CC(C)C)C(=O)NC(C(C)C)C(=O)N(C)C(CC(C)C)C(=O)NC(C)C(=O)NC(C)C(=O)N(C)C(CC(C)C)C(=O)N(C)C(CC(C)C)C(=O)N(C)C(C(C)C)C(=O)N1C (stereo unspecified) | -30%&-14%

Source: PubChem
